Compound activity from PubChem.
S aureus helic: blocks Staphylococcus aureus DNA helicase | purified S. aureus helicase, fluorescence unwinding assay; about half of the hits fall short of the stated cut | inhibition, %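 (tested at about 80 µM)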 | 120,000 tested, 0.05% active;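 active = both duplicates at 50% or more, or one of them with a favoured structure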;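 also: 0% = mean of negative control wells and 100% = mean of positive control wells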
MgrA-DNA mod: S. aureus MgrA-DNA binding modulation; fluorescence polarization; inhibition, %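 (about 10 µg/mL by stock and volumes)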; 84,000 tested, 0.13% active; AID 602314;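 active = above 50% in either of two replicates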;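 also: 0% = protein plus DNA without compound and 100% = DNA alone without protein; higher means less MgrA bound to DNA so lower polarization; one replicate is shown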
* hit, by the source's call; x = no result given.

Order of values – S aureus helic, MgrA-DNA mod
COc1cc(-c2noc(-c3c(-c4ccccc4Cl)noc3C)n2)cc(OC)c1OC
→ 8, 2.3
O=C(CSCc1cnn(-c2ccccc2)c1-n1cccc1)NCc1ccccn1
→ 6, x
CC1(C)CC(=O)C2=C(C1)Nc1ccccc1N(C(=O)C1CC1)C2c1cccs1 (stereo not given)
→ 8, -0.4
COc1ccc(-c2oc3ncn4nc(-c5ccccc5)nc4c3c2-c2ccc(OC)cc2)cc1
→ -11, x
O=C1COc2ccccc2CN1c1ccc(Cl)cc1
→ 11, -2.5
CCSC1(SCC)N=C(N)C2(C#N)C(c3ccc(F)cc3)C12C#N (stereo not given)
→ 16, 1.1
CCC(=O)Nc1nc(-c2ccc3c(c2)OCCO3)cs1
→ -10, x
CCNC(=O)c1ccccc1Sc1ccccc1COC(C)=O
→ x, -0.1
CN(c1ccccc1)S(=O)(=O)c1ccc2c(c1)CCN2S(C)(=O)=O
→ 7, -1.0
O=C1N(CN2CCOCC2)c2ccccc2C12OCCCO2
→ x, -0.3
COc1ccc(N2CCN(C(=O)CCC3=NS(=O)(=O)c4ccc(C(F)(F)F)cc4N3)CC2)cc1
→ 6, x
CC(C)(C)C1CCC(OC(=O)CN2CCOCC2)CC1 (stereo not given)
→ -1, 0.0
CC1N=C(SCC#N)N2C(C)N=C(SCC#N)N12 (stereo not given)
→ x, -0.6
COc1ccc(Nc2ncc3c(n2)CC(c2ccccc2)CC3=O)cc1 (stereo not given)
→ 2, x
CCn1c(CNC(=O)c2cccc(C)c2)nnc1SCC(=O)NC1=NCCS1
→ 3, -4.5
O=c1c2ccccc2nc2n1CC(=NCc1ccccc1)N(Cc1ccccc1)C2
→ -11, x
CC1(C)Cc2c(c(N3CCOCC3)[nH]c(=S)c2C#N)CS1
→ 8, 5.0
CC(=O)N(C)Cc1nc(-c2ccc(Cl)cc2)no1
→ -4, -0.9
Cc1ccc(S(=O)(=O)NC(=O)N(C)CCc2ccccn2)cc1
→ x, -1.1
N#CC1=C(N)Oc2c(c(=O)oc3ccccc23)C12C(=O)N(CC(N)=O)c1ccccc12 (stereo not given)
→ 3, x
COCCOC(=O)C1=C(C)NC2=C(C(=O)CC(c3ccc(Cl)cc3)C2)C1c1cc(OC)ccc1OC (stereo not given)
→ x, 2.2
CNc1nc(-c2cccs2)ns1
→ x, 1.2
Cc1cc(=S)[nH]c2cc(Br)ccc12
→ 9, x
CC(Sc1nnc(-c2ccccc2F)n1CCc1ccccc1)C(=O)NCc1ccco1 (stereo not given)
→ 7, x
CC(=O)Oc1ccc([N+](=O)[O-])cc1/C=C1\Sc2ccccc2C1=O
→ x, -5.2
O=C(Cn1cc(C(=O)c2ccco2)c2ccccc21)Nc1ccccc1
→ 18, -1.9
COc1ccc(-c2cc(C3CC3)nc(SCC(N)=O)c2C#N)cc1
→ 10, 2.8
CN(C)CCN1C(=O)C(=O)/C(=C(/O)c2ccc(S(=O)(=O)N3CCOCC3)cc2)C1c1ccc(Br)cc1 (stereo not given)
→ -29, x
Cc1cc(C(F)(F)F)c(C#N)c(=O)[nH]1
→ x, 2.6
Cc1cc(C(=O)COC(=O)Cc2ccsc2)c(C)n1NC(=O)c1ccccc1
→ 11, x

Next section:
Order of values – S aureus helic, MgrA-DNA mod
CNC(=O)C1CCCN1S(=O)(=O)c1ccc(OC)cc1 (stereo not given)
→ -13, x
O=C(CSc1nn(-c2ccc(F)cc2)c(=S)s1)NC1CC1
→ -17, x
Clc1c(-c2nnc3n2CCC3)sc2ccccc12
→ -31, -1.8
Cc1c(C(=O)OC2CCCC2)[nH]c2c1C(=O)CCC2
→ 9, 1.4
O=C(NC1CC1)C1CCN(c2cnccn2)CC1
→ 25, x
CCCCc1nnc(SCC(=O)Nc2nccs2)n1CC
→ -6, 0.1
CCOC(=O)C1=C(c2ccccc2)NC(SCC(N)=O)=C(C#N)C1c1ccco1 (stereo not given)
→ 27, x
COc1ccc(NC(=O)c2cc(-c3cccs3)nc3ccccc23)cc1
→ 0, -0.2
CC(C)Cn1cc(C(=O)NCc2cccnc2)c2c3ccccc3n(C)c2c1=O
→ -12, x
CCSc1ccc(NC(=O)CC2c3ccccc3Oc3ccccc32)cc1
→ 7, 0.4
O=C(CCCn1c(=O)c2cccn2c2ccccc21)N1CCCCC1
→ 0, -0.8
Cc1cccc2sc(N)nc12
→ -12, x
COc1ccc(-n2nc(C(=O)N3CCC(C)CC3)c3c4ccccc4n(C)c3c2=O)cc1
→ -28, x
CN(C(=O)Cc1cccc2ccccc12)C(C)(C)C#N
→ -1, x
CC1=C(C(=O)N2CCOCC2)C(c2ccccc2)NC(=O)N1 (stereo not given)
→ 1, x
Cc1[nH]c2ccccc2c1C=Nc1ccc(Cl)cc1C(=O)c1ccccc1
→ -1, 0.5
Cc1oc2cc(OC(C)C)ccc2c(=O)c1-c1ccccc1
→ 6, 0.7
O=C1NC(=O)/C(=C\c2cn(Cc3ccccc3F)c3ccccc23)N1
→ 7, 2.3
NNC(=O)CNC(=O)C1COc2ccccc2O1 (stereo not given)
→ 8, 1.2
CCOC(=O)c1ccc(Nc2ccc(-c3ccc(OC)c(OC)c3)nn2)cc1
→ 16, 2.7
CC(C)c1cc(Oc2ccc(N)cn2)cc(C(C)C)c1
→ x, -2.2
Cc1ccc2oc(-c3ccccc3)c(CN3CCOCC3)c(=O)c2c1
→ 7, 0.2
Cc1cccc(C)c1Nc1nc2ccccc2o1
→ -1, 3.8
CC1CC(Nc2ccccc2)c2ccccc2N1 (stereo not given)
→ x, -2.3
Cc1cc(C)c(S(=O)(=O)NCC23C=CC(O2)C2C(=O)N(c4ccc(Cl)cc4)C(=O)C23)c(C)c1 (stereo not given)
→ -17, 0.9
CC1SCC(=NO)CS1 (stereo not given)
→ x, -1.9
CCCCCCC1CC(=O)NC(=O)N1 (stereo not given)
→ -3, x
CCOC(=O)c1cnc2c(Cl)c(Cl)ccc2c1N(C)Cc1ccccc1
→ 7, 1.1
COc1cccc(CNC(=O)c2cc3ccccn3n2)c1
→ -8, x
O=C(O)c1cc(N2N=C(C(F)(F)F)/C(=C/c3ccc(-c4ccccc4)o3)C2=O)ccc1Cl
→ 27, 58*

Looked up by compound from the list above (3):
Order of values – S aureus helic, MgrA-DNA mod
O=C(NC1CC1)C1CCN(c2cnccn2)CC1
→ 25, x
O=C1NC(=O)/C(=C\c2cn(Cc3ccccc3F)c3ccccc23)N1
→ 7, 2.3
Cc1cc(=S)[nH]c2cc(Br)ccc12
→ 9, x

The listing continues.
Order of values – S aureus helic, MgrA-DNA mod
COC(=O)c1cccc(NC(=O)NC(C)(C)C)c1
→ 5, x
Cc1nc(-c2ccc(Cl)cc2)c(-c2ccccc2)s1
→ x, -4.8
CCC(=O)Oc1cccc(N2C(=O)C3C4C=CC(C4)C3C2=O)c1 (stereo not given)
→ 8, x
O=S(=O)(/C=C/c1ccccc1)N1CCc2ccccc2C1
→ -12, x
Cn1c(=O)cc(SCC(=O)NCc2cccnc2)c2ccccc21
→ 14, 0.8
COCCN(C(=S)Nc1cccc(Cl)c1C)C(C)c1ccccn1 (stereo not given)
→ 3, 0.2
CC(=O)NS(=O)(=O)c1ccc(N=NN2CCCCC2)cc1
→ -5, 3.1
O=C(O)CCC(=O)N1CCc2cc(S(=O)(=O)NCCc3ccc(Cl)cc3)ccc21
→ -26, x
COc1cc(C=C2C(=O)NC(=O)NC2=O)ccc1OCCSc1cccc2ccccc12
→ x, 3.5
CC(=O)NC(=O)CSc1nc2ccccc2o1
→ 10, x
CCCc1c(C(=O)NC2CCN(C(=O)OCC)CC2)cnn1-c1ccccc1
→ x, -1.3
CSc1ccccc1NC(=O)CN(C)S(=O)(=O)c1ccccc1Cl
→ 1, x
Cc1cc(N2CCOCC2)nc(N2CCOCC2)n1
→ 18, x
COc1ccc(CCNC(=O)c2ccc(Sc3ccc(C)cc3)c(NC(C)=O)c2)cc1OC
→ 1, 1.5
CC(C)(C)C(=O)OCc1nc(-c2ccc(C#N)cc2)cs1
→ x, -2.5
Cc1ccc(N2CCN(C(=O)c3cccs3)CC2)c(C)c1
→ 9, -0.2
O=C1COc2ccc(NC(=O)Oc3ccccc3)cc2N1
→ x, 0.3
CC1CCCCN1CCn1cnc2c([nH]c3ccc(Cl)cc32)c1=O (stereo not given)
→ -7, x
CN(C(=O)CO/N=C/c1ccc(OC(F)F)cc1)C1CCS(=O)(=O)C1 (stereo not given)
→ -8, x
CN(C)c1ccc(NC(=O)c2sc(=S)[nH]c2N)cc1
→ 6, -4.3
O=S(=O)(NCCSCc1c(F)cccc1Cl)c1cccc2nonc12
→ -19, x
CC(NC(=O)c1ccc(C(F)(F)F)cc1)C(c1cccs1)N1CCCC1 (stereo not given)
→ -7, 2.2
COc1ccc(/C=C/C(=O)NCc2nc3ccccc3[nH]2)cc1OC
→ 15, 2.2
CNC(=C[N+](=O)[O-])NCCSCc1csc(CN(C)C)n1
→ x, -0.8
CCCCn1c(NCc2ccccc2OC)nc2ccccc21
→ 39, x
O=c1nc(Nc2ccccc2)nc(Nc2ccccc2)[nH]1
→ x, 1.0
COc1ccc(Nc2nc(Cl)nc(NCc3ccco3)n2)cc1
→ x, 0.0
Cc1nn(-c2ccccc2)c(C)c1C(N)=O
→ 19, x
c1ccc2c(CNCCN3CCOCC3)cccc2c1
→ 6, -3.2
CN1c2ccsc2-c2nc(SCc3ccc(Cl)cc3)ncc2S1(=O)=O
→ x, -1.5

Continued:
Order of values – S aureus helic, MgrA-DNA mod
CCOc1cc(/C=c2\sc3n(c2=O)C(c2c(OC)ccc4ccccc24)C(C(C)=O)=C(C)N=3)ccc1O (stereo not given)
→ x, 2.1
CC1(C)CC(=O)C=C(NCCO)C1
→ 10, x
COC(=O)c1sc(SC)c2c1CC(C)(C)C/C2=N/O
→ x, 15
COc1ccc2c(c1)-c1c(ssc1=S)C(C)(C)N2C(C)=O
→ 6, 0.4
COC(=O)C1[C@H]2C[C@H]3c4[nH]c5ccccc5c4CCN3C[C@@H]2CC[C@@H]1O (stereo not given in full)
→ x, 3.1
Brc1ccc(-c2nnc3sc(CNC4CCCC4)cn23)cc1
→ -1, x
COc1ccc(/C=C/C(=O)N2CCOCC2)cc1
→ 0, x
COc1ccc(CN(C)C(=O)c2cc(C)n(C(C)C)c2C)c(OC)c1
→ 10, x
O=C1CCCN2N=C(SCC(=O)Nc3ccccc3C(F)(F)F)SC2=N1
→ 21, x
CN(C(=O)c1cc2c(s1)-c1ccccc1OC2)c1ccccc1
→ 3, -1.8
CCn1c(SCC(=O)N(C)C)nnc1-c1ccccc1
→ 4, -1.7
O=[N+]([O-])c1cc(C(F)(F)F)ccc1Sc1nnc(-c2cccs2)n1-c1cc(C(F)(F)F)cc(C(F)(F)F)c1
→ x, 2.1
COc1cc(SC)ccc1C(=O)N1CCCCCC1
→ 14, x
N#Cc1c(N2CCCC2=O)sc2c1CCCCC2
→ -5, x
O=C1COCC(=O)N1Cc1csc2ccccc12
→ x, 0.3
CS(=O)(=O)CCSc1ncccc1C(=O)Sc1ccc(Cl)cc1Cl
→ x, 2.5
O=C(CN1c2ccccc2S(=O)(=O)c2ccccc21)NC1CCCCCC1
→ 4, x
Cc1ccc(S(=O)(=O)c2nc(C)oc2N(C)C)cc1
→ -1, x
CS(=O)(=O)c1ncc(Cl)c(C(=O)N2CCN(C(c3ccccc3)c3ccccc3)CC2)n1
→ -15, x
CCCN(CCC)S(=O)(=O)c1cccc(S(C)(=O)=O)c1
→ 11, -0.8
CCn1ccc(C(C)C)c1-c1ccccc1
→ 3, 1.0
Cn1/c(=N/N=C2\CCCCC2=O)sc2ccccc21
→ -20, x
O=C(OCC(=O)N1CCc2ccccc21)c1sc2ccccc2c1Cl
→ 10, -4.5
O=C(Nc1ccc(C(F)(F)F)cc1)O/N=C/c1ccccn1
→ x, 2.0
Cc1cc(C(=O)CSc2nnc(-c3c[nH]c4ccccc34)o2)c(C)n1C1CC1
→ -7, x
O=C(c1ccccc1NS(=O)(=O)c1cccc2nsnc12)N1CCOCC1
→ -4, -0.2
c1nncn1N=C1CCCCCC1
→ -14, 0.2
CCC(=O)Nc1ccc(C(=O)n2nnc3ccccc32)cc1
→ 5, 0.7
CC1CCCC(=O)C1 (stereo not given)
→ 2, x
Cc1ccc2c(c1)sc(=NC(=O)/C=C/c1ccc(Br)o1)n2C
→ -8, x

One compound at a time (already shown). Values in the order: S aureus helic	MgrA-DNA mod
`N#Cc1c(N2CCCC2=O)sc2c1CCCCC2` across the screens: -5	x
`O=C(OCC(=O)N1CCc2ccccc21)c1sc2ccccc2c1Cl` across the screens: 10	-4.5
`Brc1ccc(-c2nnc3sc(CNC4CCCC4)cn23)cc1` across the screens: -1	x
`COC(=O)c1sc(SC)c2c1CC(C)(C)C/C2=N/O` across the screens: x	15

Carrying on.
Order of values – S aureus helic, MgrA-DNA mod
C=CCc1ccccc1OCC(O)CN1CCN(c2ccc(OC)cc2)CC1 (stereo not given)
→ 12, x
CC(C)(CNC(=O)Cc1ccccc1F)N1CCOCC1
→ -4, x
O=CNc1ccccc1Oc1c(F)c(F)c(F)c(F)c1F
→ 1, -0.7
N#Cc1ccc(CSc2nc(-c3cccs3)c(-c3cccs3)[nH]2)cc1
→ -4, x
CCOC(=O)C1CCN(C(=O)c2cc(C)n(C(C)(C)C)n2)CC1
→ x, -0.4
CN1C/C(=C\c2cccs2)C(=O)/C(=C/c2cccs2)C1
→ x, 0.8
Nc1ccc(Cl)cc1C(=O)N1CCN(c2ccc([N+](=O)[O-])cn2)CC1
→ x, 0.7
COc1cc(/C=N/NC(=O)c2ccc(N(C)C)cc2)ccc1O
→ x, -1.1
COc1ccccc1CNc1nc(-c2cccnc2)nn1C(=O)c1cccnc1
→ -2, 4.5
CCOC(=O)c1sc(N)c(C(=O)OCC)c1C
→ 0, 7.7
CN(Cc1cccs1)S(=O)(=O)c1ccc(Cl)nc1
→ -4, x
O=C(CSC1=NCCS1)c1ccc(Cl)s1
→ -13, x
COc1cc(C(=O)NCc2nc3ccccc3n2C(C)C)cc(OC)c1OC
→ -13, x
Cc1cccc(C(=O)Nc2ccc(N(C)C)cc2)c1
→ -21, x

A portion of the library; rates above refer to the full screens.
